# Source: PubChem BioAssay
# Mtb H37Rv = Mycobacterium tuberculosis H37Rv growth inhibition, cell based, confirmatory dose response (AID 1949); most inactive calls were filed without a number and no value below 0 was filed; one-dose inhibition, % at 10 µg/mL; IC50 in µg/mL for titrated hits; 100,000 tested, 1.6% active;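 active = confirmed in a dose series; inconclusive = about 50% or more but not retested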;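 note: bacteria grown 7 days with compound before Alamar blue readout; 0% = untreated bacteria and 100% = reference antibiotic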
# An asterisk follows results filed as active; i = inactive; ? = inconclusive. Only part of the results is shown; rates above refer to the full screens.
structure	Mtb H37Rv
S=c1[nH]nc(-c2ccc3c(c2)OCO3)n1-c1ccc2c(c1)OCCO2	i
Clc1cccc(N2CCN(Cc3ccccc3Cl)CC2)c1	i
Cc1ccc(C(=O)Nc2sc3c(c2C#N)CCC3)o1	i
CCCc1ccc(OC(=O)c2ccc([N+](=O)[O-])cc2)cc1	40%
CCOC(=O)c1ccccc1NC(=O)c1ccc(Cl)c(S(=O)(=O)N2CCOCC2)c1	i
O=C(COc1ccc([N+](=O)[O-])cc1)Nc1ccccc1F	19µg/mL*
O=C(Nc1ccn(Cc2ccc(Cl)cc2)n1)C1CCCO1 (stereo unspecified)	i
Cc1nc2ccccc2c2nc(NC(=O)Cc3ccccc3)nn12	5%
OCCN(CCO)c1nc(-c2ccccc2)nc2sc(-c3ccccc3)cc12	36%
CCCOc1ccc2c(C)c(CC(=O)O)c(=O)oc2c1C	i
CC(=O)Nc1ccccc1N1CCCC1	3%
O=C(Nc1ccc(Cl)cc1)NC1CCS(=O)(=O)C1 (stereo unspecified)	i
Cc1cc(I)ccc1NC(=S)NC(=O)COc1ccccc1C	i
COc1ccc(S(=O)(=O)NCCSCc2ccco2)cc1OC	i
COc1ccc(N(CC(=O)Nc2cc(Cl)ccc2OC)S(C)(=O)=O)cc1	i
C=CCn1c(SCCC(=O)Nc2cccc(OC)c2)nc2scc(-c3ccc(F)cc3)c2c1=O	4%
Cc1ccc(NC(=O)CCN2CCN(Cc3ccccc3)CC2)cc1C	i
COc1c(Cl)ccc(Cl)c1C(=O)NC(=O)N1CCOCC1	i
Cc1ccc(SCCNC(=O)CN(c2cccc3ccccc23)S(C)(=O)=O)cc1	i
O=C(CSc1nnc2ccccn12)NCc1ccc2c(c1)OCO2	i
COc1cc(CO)c(Br)cc1OCc1ccc(F)cc1	0%
COc1c(F)c(F)c(C(=O)NC(=S)Nc2ccc3c(c2)Cc2ccccc2-3)c(F)c1F	14%
Cc1ccc(-c2cc(C(F)(F)C(F)F)[nH]n2)cc1	7%
CCC(Oc1ccccc1)c1nnc(NC(=O)Cc2ccccc2)s1 (stereo unspecified)	6%
CC(=O)NS(=O)(=O)c1ccc(NC(=S)NC(=O)c2ccc(C(C)C)cc2)cc1	3%
CC(C)COC(=O)Oc1cccc(Br)c1	i
O=C(Nc1ccc(N2CCCCC2)c(Cl)c1)c1c(F)c(F)c(F)c(F)c1F	i
O=C(Nc1ccc2c(c1)OCCO2)NC12CC3CC(CC(C3)C1)C2	4.5µg/mL*
O=C(Nc1cccc(Br)c1)C1CCCN(S(=O)(=O)c2ccc(F)cc2)C1 (stereo unspecified)	i
CC1CN(S(=O)(=O)c2ccc3oc(=O)ccc3c2)CC(C)O1 (stereo unspecified)	i

structure	Mtb H37Rv
Cc1ccc(C(=O)O)cc1NC(=S)NC(=O)c1ccccc1[N+](=O)[O-]	i
O=[N+]([O-])c1cccc2c(NS(=O)(=O)c3ccc(F)cc3)cccc12	1%
CC(NC(=S)Nc1ccc(F)cc1F)c1ccncc1 (stereo unspecified)	i
COC(=O)c1ccc(NC(=O)CCC(=O)c2ccc(OC)cc2)cc1	i
CC(C(=O)N(C)C)N1c2cccc3cccc(c23)S1(=O)=O (stereo unspecified)	i
O=C(Nc1ccccc1)c1ccc(OC(=O)c2cc3ccccc3oc2=O)cc1	i
COC(=O)C1=C(C)NC2(O)c3ccccc3C(=O)C12O (stereo unspecified)	2%
COc1cc(NC(=S)Nc2ccc(OC(F)F)cc2)cc(OC)c1	18%
CC1CCc2sc3ncnc(NCCc4ccccc4)c3c2C1 (stereo unspecified)	1.9µg/mL*
COc1cc(OC)cc(C(=O)NCc2ccc(C(C)(C)C)cc2)c1	5%
O=C(COc1cccc2ccccc12)c1ccc(F)cc1	2.8µg/mL*
CS(=O)(=O)c1ccc2nc(NC(=O)CN3C(=O)c4ccccc4C3=O)sc2c1	i
COc1ccc(OC)c(S(=O)(=O)NC2CCCCCCC2)c1	i
O=C1OC(c2cccc(Cl)c2)=N/C1=C\c1ccccc1OS(=O)(=O)c1ccccc1	i
O=S1(=O)CCC(NS(=O)(=O)/C=C/c2ccccc2)C1 (stereo unspecified)	i
CCCC(C#CCN1CCCCC1)OC(C)=O (stereo unspecified)	i
COCCn1c(CCc2ccccc2)nnc1SCC(=O)Nc1ccccc1OC	i
Cc1nc(/N=C\N(C)C)sc1C(=O)Nc1ccccc1	0%
O=Cc1cc(Br)ccc1OCC(=O)NCCc1ccccc1	i
Nc1ncnc(Nc2ccccn2)c1[N+](=O)[O-]	i
CCc1ccc2nc(Nc3nc(C)c(CCC(C)C)c(=O)[nH]3)nc(C)c2c1	3%
Cc1cc(OCC(=O)Nc2ccc(S(=O)(=O)NC(C)C)cc2)ccc1Br	3%
COc1cccc(NC(=O)c2cc([N+](=O)[O-])ccc2N2CCOCC2)c1	4%
Cc1ccc(N2C=NNC(=O)C2)cc1C	i
C=CCNCCOc1ccc2ccccc2c1Br	i
FC(F)(F)c1cc(-c2ccco2)nc(N2CCN(c3ccccc3)CC2)n1	i
CCc1nc(SCC(=O)Nc2ccc(C)cc2)n[nH]1	i
Cc1ccc(C(=O)C2=C(O)C(=O)N(Cc3cccnc3)C2c2ccc(OC(C)C)cc2)o1 (stereo unspecified)	i
CN(CC(=O)Nc1cccc(F)c1)S(=O)(=O)c1cc(Cl)ccc1Cl	4%
CSc1nc(-c2ccco2)nn1C(=O)Cc1ccccc1	i

# Grouped by structure: those above containing a COOH group.
structure	Mtb H37Rv
CCCOc1ccc2c(C)c(CC(=O)O)c(=O)oc2c1C	i
Cc1ccc(C(=O)O)cc1NC(=S)NC(=O)c1ccccc1[N+](=O)[O-]	i

# (list continues)
structure	Mtb H37Rv
COc1ccc(S(=O)(=O)Nc2ccc(Br)c(Cl)c2)cc1C	4%
CCOc1ccc(S(=O)(=O)Nc2cc(Cl)ccc2O)cc1	i
COCCNC(=O)c1ccccc1NC(=O)c1ccc(C)cc1	i
Cc1cnc(NC(=O)CSc2nnc(-c3ccccc3C)n2C)s1	i
CCn1c(SCC(=O)c2ccc(Cl)cc2)nnc1-c1ccc(Cl)cc1	i
Cc1cc(OCC(=O)c2ccc(Cl)c(Cl)c2)c2c3c(c(=O)oc2c1)CCC3	i
CC(CCC(=O)Nc1ccccc1Cl)C(=O)O (stereo unspecified)	i
COc1ccc(-c2nnc3c4cnn(-c5ccccc5)c4ncn23)cc1OC	1%
CCOn1c(=O)c(-c2cccc3ccccc23)[n+]([O-])c2ccccc21	i
CN(Sc1ccc([N+](=O)[O-])cc1)C1CCS(=O)(=O)C1 (stereo unspecified)	i
CC(Nc1n[nH]c(=O)[nH]c1=O)C(=O)N/N=C/c1ccc(Cl)cc1 (stereo unspecified)	i
COc1ccc(Cl)cc1N(CC(=O)Nc1cc(Cl)cc(Cl)c1)S(C)(=O)=O	i
OC(COc1ccc(Cl)cc1)Cn1cnc(-c2ccccc2)c1 (stereo unspecified)	?
Cc1nn2c3ccccc3n(C)c2nc1=O	0%
O=[N+]([O-])c1ccc(N2CCN(S(=O)(=O)c3cc(Br)ccc3F)CC2)cc1	2%
CCCOc1ccc(C(=O)N2CCC(C)CC2)cc1	0%
CCn1c(SCC(=O)Nc2ccccc2C)nc2ccccc2c1=O	i
CC1CCCC(C)N1C(=O)c1ccc(-c2ccccc2)cc1 (stereo unspecified)	i
COc1cc2c(cc1OC)CN(C(=O)CSc1nc(-c3cccs3)cc(C(F)(F)F)c1C#N)CC2	i
O=[N+]([O-])c1cccc(Cn2c(-c3ccccc3)nnc2-c2ccccc2)c1	i
CCOC(=O)C1=C(C)NC(SCC(=O)Nc2ccc(F)c(F)c2)=C(C#N)C1c1cccs1 (stereo unspecified)	i
Cc1cc(C)nc(NS(=O)(=O)c2ccc(NC(=O)c3ccc(Br)o3)cc2)n1	2%
COc1ccc([N+](=O)[O-])cc1NC(=O)c1ccc(N(C)S(=O)(=O)c2ccccc2)cc1	i
CN1CCN(C(=O)c2cc(I)ccc2NC(=O)c2ccco2)CC1	i
Cc1ccc(C(=O)N2CCN(c3ccc(NC(=O)c4cccs4)cc3)CC2)cc1	i
Cc1cc(C)c(C)c(OCC(=O)Nc2ccccc2C(F)(F)F)c1	i
O=c1cc(-c2ccccc2)nc(N2CCN(C(c3ccccc3)c3ccccc3)CC2)[nH]1	i
Cn1c(SCCc2ccccc2)nnc1-c1ccc2c(c1)OCO2	i
N#Cc1cn(-c2ccccc2)nc1-c1ccncc1	i
O=C(Cn1cc(C(=S)N2CCOCC2)c2ccccc21)Nc1ccc2c(c1)OCO2	i

structure	Mtb H37Rv
COc1cc(C(=O)O)c(CNC(=O)CSc2nnnn2C)c(OC)c1OC	1%
COc1cc(CO)ccc1OCc1ccc(Br)cc1	i
Cc1ccccc1CN(CC(=O)Nc1ccc(F)cc1)S(=O)(=O)c1ccc(Cl)cc1	i
CCc1ccc(OCC(=O)O/N=C(\N)c2cccc([N+](=O)[O-])c2)cc1	1%
CCc1ccccc1NC(=O)CN(C)S(=O)(=O)c1cc(Cl)ccc1Cl	i
O=C(NC(=S)Nc1ccccc1N1CCOCC1)c1ccc2c(c1)OCO2	i
Cc1cc(C)nc(SCc2cc(-c3nn(C)c(=O)c4ccccc34)ccc2C)n1	i
Cn1cccc1-c1nc2ccc(NC(=O)c3cccs3)cc2[nH]1	i
CC(C)c1ccccc1NC(=O)CN(c1ccc(Br)cc1)S(=O)(=O)c1ccccc1	i
O=C(CCC1CCCC1)Nc1ccccc1NC(=O)CCC1CCCC1	i
O=C1CC(c2ccc(Cl)cc2)Sc2nc(-c3ccccc3)nn21 (stereo unspecified)	i
COc1ccc(CSc2nc3sc4c(c3c(=O)n2Cc2ccccc2)CCN(Cc2ccccc2)C4)cc1	i
COc1ccc(C(=O)Nc2ncc(Cc3ccc(F)cc3)s2)cc1	i
CCCc1cc(=O)oc2cc(C)cc(OCc3cc([N+](=O)[O-])ccc3OC)c12	i
COc1ccc(S(=O)(=O)N(C)CC(=O)NC2CC2)cc1Cl	i
Cc1cc(N2CCN(S(=O)(=O)c3ccc(C)c(C)c3)CC2)c2ccccc2n1	i
N=c1n(CCO)c2ccccc2n1Cc1ccccc1Cl	i
Cc1cc(=O)oc2c(C)c(OCc3c(F)cccc3F)ccc12	i
CC(C)Oc1ccc(C(CC(=O)Nc2nccs2)Cc2ccccc2)cc1 (stereo unspecified)	46%
COc1ccc(OCCCC(=O)Nc2ccc(Br)cc2)cc1	i
CCCCOc1ccc(NC(=O)c2cc(OC)cc(OC)c2)cc1	i
COc1ccc(S(=O)(=O)N(CC(=O)Nc2cccc(C(C)=O)c2)c2ccccc2)cc1OC	i
COc1cc(C(=O)NC(C)COc2ccc(C(C)C)cc2)cc(OC)c1OC (stereo unspecified)	i
O=C(Nc1ccc2c(c1)C(=O)c1ccccc1-2)OCc1ccccc1	1%
OC(CNC1CC1)Cn1c2ccccc2c2ccccc21 (stereo unspecified)	1%
CCOC(=O)CCCSc1nc2c(c(C(F)(F)F)c1C#N)CC(C)CC2 (stereo unspecified)	2%
Cc1nc(NCCOCc2ccccc2)sc1C(=O)Nc1ccccc1	i
CCCN(CCC)S(=O)(=O)c1ccc(NC(=O)Cc2ccc(Cl)cc2)cc1	i
COc1ccc(Cl)cc1C(=O)Nc1nnc(Cc2ccccc2)s1	i
Cc1ccc(C)c(OCCCC(=O)Nc2ccccc2F)c1	i

# In the list so far, these contain a thiophene ring, fused or not:
structure	Mtb H37Rv
Cc1ccc(C(=O)Nc2sc3c(c2C#N)CCC3)o1	i
OCCN(CCO)c1nc(-c2ccccc2)nc2sc(-c3ccccc3)cc12	36%
C=CCn1c(SCCC(=O)Nc2cccc(OC)c2)nc2scc(-c3ccc(F)cc3)c2c1=O	4%
CC1CCc2sc3ncnc(NCCc4ccccc4)c3c2C1 (stereo unspecified)	1.9µg/mL*
COc1cc2c(cc1OC)CN(C(=O)CSc1nc(-c3cccs3)cc(C(F)(F)F)c1C#N)CC2	i
CCOC(=O)C1=C(C)NC(SCC(=O)Nc2ccc(F)c(F)c2)=C(C#N)C1c1cccs1 (stereo unspecified)	i
Cc1ccc(C(=O)N2CCN(c3ccc(NC(=O)c4cccs4)cc3)CC2)cc1	i
Cn1cccc1-c1nc2ccc(NC(=O)c3cccs3)cc2[nH]1	i
COc1ccc(CSc2nc3sc4c(c3c(=O)n2Cc2ccccc2)CCN(Cc2ccccc2)C4)cc1	i

# (list continues)
structure	Mtb H37Rv
Cc1nc(CSc2nc3sc4c(c3c(=O)n2-c2ccccc2)CCC4)cs1	0%
O=C(Nc1ccccc1)c1ccccc1OCc1ccc(S(=O)(=O)Cc2ccccc2)cc1	i
Cc1ccc(NC(=O)CSc2nnc(NC(=O)CCc3ccccc3)s2)c(C)c1	i
COc1ccccc1N1C(=O)CCC1(C#N)c1ccc(OCc2ccccc2)cc1 (stereo unspecified)	i
COc1cccc(NC(=O)C2CCCN(S(C)(=O)=O)C2)c1 (stereo unspecified)	i
O=c1c2ccccc2ncn1Cc1ccc(Cl)c(Cl)c1	i
CCOc1cccc(CNCc2ccccc2Cl)c1	i
CCC(=O)Oc1cccc(C(=O)Nc2ccc(-c3nc4ccccc4o3)cc2)c1	i
CC(=O)Nc1ccc(-c2cn(Cc3ccccc3)cn2)cc1	i
O=C1OC(c2ccccc2)C(O)(c2ccccc2)C12CCCCC2 (stereo unspecified)	1%
CCOc1cc(S(=O)(=O)NC2CC(C)(C)NC(C)(C)C2)c(C)cc1C	i
C=CCN(CC=C)C(=O)c1ccc([N+](=O)[O-])cc1Cl	i
CCN(C(=O)c1sc2nc(C)cc(C)c2c1N)c1ccccc1	i
CCOC(=O)c1cnc2ccc(C(=O)OC)cc2c1NCc1cccnc1	i
CCOC(=O)C1=NNC(C(=O)c2ccc(Cl)cc2)C1c1ccccc1 (stereo unspecified)	i
